Bioassay records deposited in PubChem BioAssay by several laboratories.
Autofluor counter: compound fluorescence in toxin protease inhibitor counterscreen. compound autofluorescence counterscreen, microsphere flow cytometry; hits give high values. fluorescence intensity (concentration not given with the values). hit rate 3.1% among 360,000;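 active = at least 3 SD above the mean of all compounds, about 16000 in these data; inconclusive = too few beads counted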;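 note: 100 nL of 1 mM stock went into each well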
ugtP null kill: growth inhibition of S. aureus ugtP deletion strain. S. aureus RN4220 ugtP deletion, OD600 growth, 16 h; some inactives read as strong as hits. growth inhibition, % (no concentration beside the values). hit rate 0.54% among 330,000. AID 1259309;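 active = z-score under -3 and OD600 up to 0.15 on both plates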;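 note: plate controls were untreated wells for no effect and antibiotic for full effect; wells of about 80 µL received 100 nL stock; the first replicate is given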
Mtb hypoxia inh: inhibitors of hypoxia-regulated fluorescent reporter in Mycobacterium tuberculosis; M. tuberculosis hypoxia-regulated fluorescent reporter, fluorescence; fluorescence inhibition, % (concentration not given with the values); hit rate 0.1% among 300,000; AID 1159583;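 active = 35 to 45% if threefold the growth effect, above 45% if 1.5-fold the growth effect; inactive = the rest, general growth blockers included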;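 note: wells of about 50 µL received 100 nL stock; 0% = vehicle wells and 100% = reference inhibitor wells; whole bacteria with a GFP reporter of the hypoxia response; strong numbers were not always called active; many hits fall short of the cut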
Sa RN4220 lethal: S. aureus RN4220 growth inhibition; OD600, 16 h; inhibition, % (no concentration beside the values); hit rate 0.33% among 330,000; AID 1259311;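 active = z-score of -3 or lower and OD600 up to 0.18 on both plates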;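 note: plate controls were untreated cells for no effect and reference antibiotic for full effect; stock transfer was 100 nL into about 80 µL; one replicate is shown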
PrP 5UTR inh: inhibition of PrP 5' UTR reporter expression. cell-based PrP 5' UTR mRNA reporter, plate reader. inhibition, % (test concentration not listed). hit rate 0.35% among 340,000. AID 488862;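 active = every replicate at 50% or more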;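 note: 0 = median of the neutral control wells; tested in H4 reporter cells; numbers are from one replicate; inactives centre near -14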
BJeLR viability: BJeLR cell viability loss. AID 1554. hit rate 0.17% among 300,000. BJeLR (HRASV12) viability, CellTiter-Glo ATP luminescence, 48 h; reference of the scale not given here. inhibition, % (concentration not given with the values);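 active = replicate mean above 50%; inconclusive = above 50% but judged a plate artefact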;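 note: 50 nL library stock added to about 25 µL; numbers are from one replicate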
Mtb hypoxia inh growth: also measured in Mtb hypoxia inh; calls as there; growth inhibition, %; measured here: M. tuberculosis growth (absorbance);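 0% = vehicle and 100% = reference antibiotic; read after six days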
* hit, by the source's call; u = inconclusive; x = no result given; & = joins results of further samples.

#1 CCOc1cc(Cl)c(S(=O)(=O)NCc2cccnc2)cc1Cl
#2 COc1ccc(/C=C/C(=O)NC(C)C)cc1Br
#3 Cc1[nH]c(=O)[nH]c(=O)c1NC(=O)c1cccs1
#4 Cc1ccc(S(=O)(=O)N2CCN(C(=O)C(Cc3ccccc3)NC(=O)c3ccccc3)CC2)cc1 (configuration not stated)
#5 CN1C(C(=O)NCc2cccc(C(F)(F)F)c2)CC2Cn3c(nc4ccccc43)C21 (configuration not stated)
#6 Cc1cccc(N(CC(O)CN(C)C)S(=O)(=O)c2ccccc2)c1 (configuration not stated)
#7 O=S(=O)(Nc1ccccc1)C1CCCCC1
#8 Nc1cc(C(=O)OCC(=O)N2CCC(Cc3ccccc3)CC2)ccc1Cl

Compound	1	2	3	4	5	6	7	8
Autofluor counter	3591	22011*	21903*	5520	2868	4106	3775	4071
ugtP null kill	4	-2	3	3	-2	1	5	2
Mtb hypoxia inh	10	4	6	3	12	x	11	3
Mtb hypoxia inh growth	6	9	9	8	4	x	16	-5
Sa RN4220 lethal	8.8	1.7	4.1	2.1	3.9	3.6	2.7	1.9
PrP 5UTR inh	-9	9	-36	-8	-5	-8	-13	-14
BJeLR viability	7	0	7	x	4	-4	x	x

#9 CCCC(=O)n1nc(-c2cccnc2)nc1N
#10 c1ccc(-c2ccc(CN3CCSCC3)cc2)cc1
#11 Cn1c(-c2c(N)n(CCCc3ccccc3)c3nc4ccccc4nc23)nc2ccccc21
#12 Cc1cc(N/C=C2\CCCCC2=O)no1
#13 CCOc1ccc(NC(=O)c2c3c(nc4ccccc24)CCC3)cc1
#14 COC(=O)c1[nH]c2ccccc2c1NC(=O)c1ccccc1[N+](=O)[O-]
#15 Cc1cc2cc(CCNS(C)(=O)=O)c(=O)[nH]c2cc1C
#16 Cc1cc(C)n(Cc2ccc(C(=O)O)cc2)n1

Compound	9	10	11	12	13	14	15	16
Autofluor counter	23837*	3491	7771	8183	4419	2591	4705	8262
ugtP null kill	-1	8	31	4	-7	2	-1	16
Mtb hypoxia inh	3	8	-3	5	2	13	x	2
Mtb hypoxia inh growth	16	-1	5	6	2	7	x	-1
Sa RN4220 lethal	0.2	0.5	18	5.6	0.3	6.7	-0.6	3.9
PrP 5UTR inh	4	-35	-11	-5	-12	0	-17	-25
BJeLR viability	5	-2	0	-6	-3	-3	10	-6

#17 COc1ccccc1/C=C/CN1CC(C)OC(C)C1 (configuration not stated)
#18 CC(=O)Nc1ccc(C=NNC(=O)CNS(=O)(=O)c2ccc([N+](=O)[O-])cc2)cc1
#19 Cc1ccc(S(=O)(=O)N2CCC(Oc3ccc(-n4cnnn4)cc3)CC2)cc1
#20 CP(=O)(COC(=O)c1ccccc1)COC(=O)c1ccccc1
#21 CCOc1ccccc1C(=O)N(CN1CCCC1=O)c1ccc(C)c(Cl)c1
#22 CCOC(=O)N1CCN(C(=O)Cn2ccc3c(OC)cccc3c2=O)CC1
#23 COCCNc1nc(N)c([N+](=O)[O-])c(NCCO)n1
#24 Cc1nn(C)c(C)c1NC(=O)CSc1nnc(C)n1-c1ccccc1

Compound	17	18	19	20	21	22	23	24
Autofluor counter	7886	x	5243	2437	u	4216	2475	10629
ugtP null kill	4	4	6	6	15	-8	11	2
Mtb hypoxia inh	4	-11	-12	x	-1	3	9	-5
Mtb hypoxia inh growth	5	-13	0	x	7	8	-24	11
Sa RN4220 lethal	4.0	7.8	6.6	4.1	6.6	3.7	1.3	2.5
PrP 5UTR inh	1	x	-17	-26	-2	4	-14	-2
BJeLR viability	-5	x	3	-2	13	-12	12	5

Structures listed so far that contain an aryl methoxy group (3):
#2 COc1ccc(/C=C/C(=O)NC(C)C)cc1Br
#17 COc1ccccc1/C=C/CN1CC(C)OC(C)C1 (configuration not stated)
#22 CCOC(=O)N1CCN(C(=O)Cn2ccc3c(OC)cccc3c2=O)CC1

Compound	2	17	22
Autofluor counter	22011*	7886	4216
ugtP null kill	-2	4	-8
Mtb hypoxia inh	4	4	3
Mtb hypoxia inh growth	9	5	8
Sa RN4220 lethal	1.7	4.0	3.7
PrP 5UTR inh	9	1	4
BJeLR viability	0	-5	-12

Further structures follow:
#25 O=C(NCc1ccco1)C(=S)N1CCCCC1
#26 c1ccc2nc(-c3nccs3)ccc2c1
#27 CCOC(=O)CSc1nnc(-c2ccc(S(=O)(=O)NCc3cccs3)cc2)o1
#28 O=C(O)CCCNc1ccc(S(=O)(=O)Nc2ccccc2C(=O)O)cc1C(=O)O
#29 Cc1noc(C)c1C(=O)Nc1nc(-c2ccc(F)cc2)cs1
#30 O=C(CCNC(=O)c1ccccc1Cl)Nc1nc(-c2ccc(F)cc2)cs1
#31 O=C(O)C1CC2C3CC(C(=O)O)C(C3)C2C1 (configuration not stated)
#32 CC(=O)C1C(c2ccc(Cl)cc2)NC(=O)NC1(O)C(F)(F)F (configuration not stated)

Compound	25	26	27	28	29	30	31	32
Autofluor counter	3741	3444	15856	7046	3570	2398	3904	4401
ugtP null kill	7	6	-4	10	9	6	-4	5
Mtb hypoxia inh	15	9	1	4	7	-6	4	-1
Mtb hypoxia inh growth	0	3	7	7	8	2	15	-4
Sa RN4220 lethal	8.7	9.5	2.4	5.9	6.4	2.7	1.5	0.9
PrP 5UTR inh	-9	-27	-11	-30	-14	-7	2	-15
BJeLR viability	-5	-12	4	x	x	-10	x	-6

#33 Cc1cc(C)cc(N(CC(=O)N2CCc3ccccc32)S(=O)(=O)c2c(C)noc2C)c1
#34 CCCNC(=O)C1CCN(S(=O)(=O)c2ccc3nc4c(c(C(=O)O)c3c2)CCCCC4)CC1
#35 CCOC(=O)N1CCN(C(=O)c2ccccc2NC(=O)COc2ccccc2C)CC1
#36 O=C(Nc1ccc(F)cc1F)N1CCCN(c2ccc([N+](=O)[O-])cn2)CC1
#37 Cc1ccc(N2CCN(C(=O)c3cc(COc4c(C)cccc4C)on3)CC2)c(C)c1
#38 Cc1nc2sc(-c3ccccc3)cc2c(=O)n1N=CN(C)C
#39 CCc1cc2c(NCC(=O)O)ncnc2s1
#40 COC(=O)c1cccc(S(=O)(=O)N(Cc2ccco2)Cc2cc3ccc(OC)cc3[nH]c2=O)c1

Compound	33	34	35	36	37	38	39	40
Autofluor counter	4237	5624	4790	4505	6360	x	4216	24753*
ugtP null kill	5	-6	4	8	2	-3	-2	4
Mtb hypoxia inh	x	-5	9	-2	3	13	x	-3
Mtb hypoxia inh growth	x	-1	8	4	5	13	x	5
Sa RN4220 lethal	5.7	2.1	-8.6	2.4	-0.5	3.3	1.4	-0.6
PrP 5UTR inh	-5	-20	-7	-3	-12	x	-17	6
BJeLR viability	1	8	-1	3	-1	x	0	x

#41 COc1ccc(Cc2nnc(NC(=O)c3ccc(Cl)c([N+](=O)[O-])c3)s2)cc1
#42 COc1cc(OC)c2cc(C(=O)NN=Cc3ccccc3O)[nH]c2c1
#43 Fc1ccc(NCc2cccnc2)cc1F
#44 CCOC(=O)c1cc(C(C)=NOC(=O)c2ccc(C(C)(C)C)cc2)on1
#45 CCOC(=O)c1ccc(NC(=O)N2CCN(C3CCCCC3)CC2)cc1
#46 O=C(CCCC(=O)NC1CCCC1)NC1CCCC1
#47 O=C(Nc1ccc2oc(-c3ccncc3)nc2c1)c1ccc2c(c1)OCO2
#48 Cc1nnc(NC(=O)c2cc(S(=O)(=O)N3CCCCC3)ccc2Cl)s1

Compound	41	42	43	44	45	46	47	48
Autofluor counter	5758	x	14076	x	16368*	1958	4253	5856
ugtP null kill	-2	-4	-7	3	0	5	4	4
Mtb hypoxia inh	12	13	-3	0	-2	8	8	3
Mtb hypoxia inh growth	14	0	1	5	4	2	-2	3
Sa RN4220 lethal	2.2	2.6	0.3	1.8	0.7	3.7	2.5	-0.9
PrP 5UTR inh	-36	x	-8	x	-27	-6	-7	-1
BJeLR viability	4	x	-6	x	10	-11	8	-3

#49 CCCCC(=O)NC(=S)Nc1ccc(S(=O)(=O)N2CCCC2)cc1
#50 N=c1c(C(=O)NCCN2CCOCC2)cc2c(=O)n3ccccc3nc2n1Cc1ccc(F)cc1
#51 O=C(c1cccc2ccccc12)N1CCN(c2ccc([N+](=O)[O-])c(NCc3ccco3)c2)CC1
#52 CSCCC(NC(=O)COc1ccccc1)C(=O)O (configuration not stated)
#53 COc1ccc(CCNC(=O)COC(=O)c2cccs2)cc1
#54 CN(C)c1cccc2c1c(NC(=O)c1ccc(F)cc1)nn2C
#55 COc1ccc(C(C)NC(=O)C2C(=O)NC3(C)CC2c2ccccc2O3)cc1 (configuration not stated)
#56 O=C(COc1ccc(S(=O)(=O)N2CCOCC2)cc1)Nc1ccccc1F

Compound	49	50	51	52	53	54	55	56
Autofluor counter	5838	6127	1916	3944	6620	6297	2420	u
ugtP null kill	94*	5	-5	6	1	-1	-2	3
Mtb hypoxia inh	13	10	0	11	4	0	-6	-20
Mtb hypoxia inh growth	12	5	8	4	2	4	9	-4
Sa RN4220 lethal	5.3	3.4	-1.8	13	1.0	5.4	1.9	0.9
PrP 5UTR inh	-31	-7	-7	5	-11	5	-28	-9
BJeLR viability	0	-2	-10	-21	x	0	11	-11

#57 Nc1ccccc1C(=O)N1O[C@@H]2C=C[C@H]1CC2
#58 CC1CC(C)CN(S(=O)(=O)c2ccc(NC(=O)C3COc4ccccc4O3)cc2)C1 (configuration not stated)
#59 COc1ccc(C2C3=C(OC(C)=O)c4ccccc4C3=Nc3c2c(=O)n(C)c(=O)n3C)cc1 (configuration not stated)
#60 COc1ccc(C)cc1NC(=O)NNS(=O)(=O)c1ccc(NC(C)=O)cc1
#61 Cc1ccc(S(=O)(=O)c2cn(C)c3cc(N4CCN(C)CC4)c(F)cc3c2=O)c(C)c1
#62 CCC(CCC(=O)NNC(=O)Cc1ccc([N+](=O)[O-])cc1)C(=O)O (configuration not stated)
#63 COc1ccc(CCN2CC(C(=O)OC(C)C(=O)Nc3ccc(NC(C)=O)cc3)CC2=O)cc1OC (configuration not stated)
#64 CCCC(C)C(=O)OCC(=O)Nc1c(Br)cc(C)cc1Br (configuration not stated)

Compound	57	58	59	60	61	62	63	64
Autofluor counter	3622	6323	5289	4248	6053	4926	3982	10536
ugtP null kill	6	7	-4	1	3	16	0	-1
Mtb hypoxia inh	4	x	-2	5	7	4	-2	1
Mtb hypoxia inh growth	7	x	7	-1	-6	19	3	4
Sa RN4220 lethal	5.6	-3.8	4.2	-0.6	4.5	3.2	1.8	11
PrP 5UTR inh	-26	-11	-25	-23	-8	-14	-21	-5
BJeLR viability	x	3	12	-5	-2	-2	x	-7

#65 O=[N+]([O-])c1ccc(N2CCN(S(=O)(=O)c3ccccc3)CC2)cc1NCc1cccnc1
#66 COc1ccc(-c2[nH]ncc2CNCCCSC)cc1F
#67 CN(C)/C=C/C(=O)c1nn(-c2ccc(F)cc2)ccc1=O
#68 CSC(=NC#N)N1CCN(c2ccccc2)CC1
#69 Cc1cc(OCCN2CCCCCC2)ccc1[N+](=O)[O-]
#70 COc1ccc(-n2c(SCC3CNC(=O)O3)nnc2-c2ccc(Cl)cc2)cc1 (configuration not stated)
#71 COc1ccc(C(=O)NC(=Cc2ccco2)C(=O)NC2CCS(=O)(=O)C2)cc1 (configuration not stated)
#72 O=C(c1cccc(C(F)(F)F)c1)c1c[nH]c(C(=O)NCC2CCCO2)c1 (configuration not stated)

Compound	65	66	67	68	69	70	71	72
Autofluor counter	2344	5908	4062	20884*	2954	2200	x	3181
ugtP null kill	-5	4	3	6	0	1	-1&-4	22
Mtb hypoxia inh	x	1	-7	4	7	11	3&1	-7
Mtb hypoxia inh growth	x	3	-1	13	0	-2	11&6	-2
Sa RN4220 lethal	-1.5	2.2	1.7	4.0	1.2	0.6	6.4&4.8	6.8
PrP 5UTR inh	-2	5	-5	-3	-29	-11	x	-7
BJeLR viability	5	0	-6	-2	-7	-3	x	-9

#73 CCOC(=O)Cc1csc(NC(=O)CCC(=O)O)n1
#74 COC(=O)c1cc(C#N)c(Oc2ccc(F)cc2)nc1C
#75 O=C(CNC(=O)C1COc2ccccc2O1)N/N=C/c1cc(Br)c(O)c(Br)c1 (configuration not stated)
#76 COCc1cc(C)nc(N2CCN(c3ccccc3)CC2)c1C#N
#77 O=C(O)CCN1C(=O)CC2(CCCCC2)C1=O

Compound	73	74	75	76	77
Autofluor counter	x	4591	3449	23159*	4816
ugtP null kill	-4	-1	x	-12	4
Mtb hypoxia inh	2	x	x	14	x
Mtb hypoxia inh growth	8	x	x	9	x
Sa RN4220 lethal	2.2	1.9	x	21	0.3
PrP 5UTR inh	x	-30	-20	-18	-8
BJeLR viability	4	10	-12	4	-5
